# A1 inh: inhibitors of the anti-apoptotic protein A1, read as caspase activation. caspase activation, % (concentration not given with the values). MEF A1-2A-BIM cells, Caspase-Glo 3/7 luminescence, 3 h; percent of clofoctol response, vehicle zero. 0.066% of 330,000 active;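 active = over half of replicate activation scores above 10%, or exactly half above 10 with the replicate mean above 10; inconclusive = replicate mean below 10 yet half the replicates above 10; inactive = over half of replicates below 10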;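 also: wells of about 30 µL received 50 nL stock; many hits fall short of the cut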
# Ecoli rRNA inh: selective bacterial rRNA inhibition in E. coli; GFP signal change (wild-type ribosome), % (test concentration not listed); AID 720706; 1.6% of 350,000 active; E. coli WT GFP vs humanized-ribosome RFP mutants, fluorescence, 24 h; hits give low values; DMSO median 0, no signal -100;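 active = significant combined selectivity score with lowered wild-type GFP, culture density cut under 30%, mutant RFP and density less affected; inactive = any of these conditions unmet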; also: one replicate is shown; some compounds called inactive have numbers as strong as hits
# Vif TR-FRET: inhibitors of Vif binding to APOBEC3G peptide, primary screen, biochemical, TR-FRET, GST-Vif 1-94, biotin-A3G peptide, dose response retest (AID 1117319); TR-FRET GST-Vif / biotin-A3G peptide binding; higher % means a stronger effect; test concentration not given here; strong numbers were not always called active; one-dose inhibition, %; IC50 in µM for titrated hits; 0.57% of 260,000 active;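 active = above the screen mean plus three standard deviations and confirmed in dose response; inconclusive = results disagree or hit not tested in dose response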;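 also: Vif residues 1-94 fused to GST binding biotinylated APOBEC3G peptide 110-148; 0% = full assay without inhibitor and 100% = GST in place of GST-Vif; retest series ran down from 100 µM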
# Beta apoptosis: beta cell apoptosis inhibition; protection from apoptosis, % (test concentration not listed); INS-1E cytokine-induced death, ATP luminescence, 48 h; percent of positive-control rescue, neutral wells zero; AID 435005; 0.8% of 300,000 active;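 active = all replicates at 75% or more, or half of them and the mean; inconclusive = half reach 75% but not the mean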;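 also: 0% = cytokine-treated negative control wells and 100% = positive control rescue; higher means more ATP so stronger rescue from cytokine killing; wells of about 40 µL received 100 nL stock; the first replicate is given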
# Calb FLC: C. albicans growth modulation with fluconazole | C. albicans CaCi-2 (fluconazole-resistant clinical isolate) + fluconazole, Alamar Blue growth, 48 h | growth inhibition, % (test concentration not listed) | 0.57% of 300,000 active | AID 1979;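 active = most replicates above 75%; inconclusive = exactly half above 75%; inactive = most below 75%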;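 also: all wells also contain fluconazole at 8 µg/ml as a sub-toxic cotreatment; 0% = median of DMSO wells and 100% = median of geldanamycin control wells; wells of about 8 µL received 7.5 nL stock; the first replicate is given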
# MLL AF4-AF9 inh: inhibitors of human MLL-AF4/AF9 interaction | 0.47% of 350,000 active | inhibition, % at 10 µM | AlphaScreen, biotin-AF4 peptide binding to FLAG-AF9 | AID 651704 | P42568;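 active = every replicate reaching a set inhibition limit, whatever the replicate mean, cut at about 25% in these data; inconclusive = mean inhibition reaches that limit but some replicates miss it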;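 also: 0% = plate neutral control median and 100% = total signal loss; the record names both 10 and 1 µM as test concentration; the first replicate is given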
# Target sequence (P42568 whole entry, looked up): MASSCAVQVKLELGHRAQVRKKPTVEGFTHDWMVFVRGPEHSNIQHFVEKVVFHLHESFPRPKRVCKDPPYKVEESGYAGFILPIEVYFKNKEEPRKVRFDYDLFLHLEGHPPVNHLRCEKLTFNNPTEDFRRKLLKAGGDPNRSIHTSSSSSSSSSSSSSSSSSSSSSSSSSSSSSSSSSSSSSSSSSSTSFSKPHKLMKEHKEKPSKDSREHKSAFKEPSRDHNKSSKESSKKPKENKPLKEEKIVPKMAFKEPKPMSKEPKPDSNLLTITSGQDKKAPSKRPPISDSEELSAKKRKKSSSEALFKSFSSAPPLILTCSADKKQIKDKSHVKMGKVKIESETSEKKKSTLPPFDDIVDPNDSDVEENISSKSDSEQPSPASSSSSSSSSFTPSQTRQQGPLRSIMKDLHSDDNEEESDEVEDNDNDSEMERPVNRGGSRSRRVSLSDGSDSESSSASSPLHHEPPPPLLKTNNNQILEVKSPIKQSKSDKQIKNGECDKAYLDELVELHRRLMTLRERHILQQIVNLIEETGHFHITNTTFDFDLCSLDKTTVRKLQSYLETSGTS
# RanGTP-Impb inh: inhibitors of RanGTP-importin-beta interaction, primary screen, biochemical, FRET, CFP-Ran, YFP-importin-beta, homogeneous. cell-free CFP-Ran/YFP-importin-beta FRET ratio. inhibition, % (test concentration not listed). 1.1% of 300,000 active. AID 2216;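 active = most replicates above 15%; inconclusive = exactly half above 15%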;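 also: 0% = DMSO wells and 100% = Ran loaded with GDP instead of GTP; wells of about 40 µL received 100 nL stock; the first replicate is given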
# T cruzi inh: T. cruzi replication inhibition; 1.4% of 300,000 active; AID 1885; T. cruzi beta-gal in NIH3T3, luminescence, 90 h; inhibition, % (no concentration beside the values);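 active = mean inhibition across valid replicates above about 55%, limit read from the data; inconclusive = mean below that limit but half or more replicates reach it; inactive = mean below it, under half of replicates reach it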;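 also: signal also drops with host cell toxicity which is not excluded here; 0% = plate median of DMSO wells and 100% = zero luminescence signal; higher percent means less beta-gal luminescence so fewer parasites; stock transfer was 50 nL into about 50 µL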
# Ecoli rRNA inh OD600: further read-out of Ecoli rRNA inh, marked with its call; OD600 change, %; measured here: OD600 growth;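 optical density of the mix in the first replicate; 0 = DMSO median and -100 = no signal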
# Ecoli rRNA inh RFP: second read-out of Ecoli rRNA inh, no call of its own (marks repeat the call); RFP signal change, %; measured here: RFP humanized mutant strains;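 first replicate; 0 = DMSO median and -100 = no signal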
# * hit, by the source's call; ? = inconclusive; . = no result given.
SMILES,A1 inh,Ecoli rRNA inh,Ecoli rRNA inh OD600,Ecoli rRNA inh RFP,Vif TR-FRET,Beta apoptosis,Calb FLC,MLL AF4-AF9 inh,RanGTP-Impb inh,T cruzi inh
O=C(CCl)N1c2ccccc2CCc2ccccc21,-0.8,9,13,-1.2,.,-11,84*,0.3,-0.1,71*
COc1ccc(-c2nn(-c3ccccc3C)cc2CNCc2cccnc2)cc1F,-0.3,-18*,-8.5*,4.0*,-1%,-4,-14,-1.1,3.6,-1
Cc1ccc2nc(-c3cccnc3)cc(C(=O)Nc3ccccc3[N+](=O)[O-])c2c1,0.4,2,8,1.6,.,-5,-3,-2.1,2.1,-22
CCNC(=S)Nc1ccc(Oc2ccccc2)cc1,0.1,-9,-11,-3.1,.,-5,2,.,0.3,-24
CCCN1CCC(NC(=O)c2cccc(Oc3ccccc3)c2)CC1,0.9,5,4,-0.7,.,-8,-3,0.7,6.5,-5
O=C(COC(=O)CCN=C1NS(=O)(=O)c2ccccc21)NNC(=O)c1ccccc1,0.8,4,11,0.8,5%,1,10,-8.2,-1.8,4
Nc1nnnn1/N=C/c1cc(Br)ccc1O,-0.9,-16,-4,-3.1,.,-2,3,-0.4,2.1,10
Cc1cc(C(=O)N2CCCC(N3CCN(c4ccc(F)cc4)CC3)C2)no1 (stereo unspecified),0.5,.,.,.,-9%,1,0,0.3,2.3,-4
CCN1C(=O)[C@H]2[C@@H](c3ccc(OC)cc3)N3C(=O)CN(Cc4ccccc4)C(=O)[C@@]3(C)[C@H]2C1=O,-0.2,0,-3,-14,.,2,-2,-0.8,-0.1,-13
CCN(CC)S(=O)(=O)c1cccc(C(=O)N/N=C/c2ccccn2)c1,0.0,-9,-10,5.0,?,-13,-18,-1.2,-1.2,-14
CC(C)CN1C(=O)NC2(CCCc3ccccc32)C1=O (stereo unspecified),0.0,0,11,3.8,5%,-2,-11,-0.4,-2.4,-17
Cc1ccc(NC(=O)CCNS(=O)(=O)c2ccc3c(c2)CCC(=O)N3)cc1,1.3,0,4,-0.5,.,1,-1,-6.4,1.8,-13
N=C(N)SCc1cn(-c2ccccc2)nc1-c1ccc(Br)cc1,.,-62,-80,-22,-4%,.,-22,33*,2.7,55*
COC(c1ccccc1)c1nnc(CCC(=O)N(C)CCCC2CCCC2)o1 (stereo unspecified),1.6,-2,4,0.7,2%,3,0,0.0,0.0,11
CCOc1cc2nc3c4ccccc4n(C)c3nc2cc1OCC,-0.8,13,7,1.1,-1%,3,6,0.4,38*,35
COc1ccc(S(=O)(=O)N2CCOC2CNC(=O)C(=O)NCc2ccncc2)cc1C (stereo unspecified),-1.7,0,0,-0.2,-5%,-1,-6,0.6,-0.3,-1
CC(=O)c1ccc(N2CCN(C(=O)c3ccc(S(=O)(=O)NCc4ccco4)cc3)CC2)cc1,-0.1,8,-1,3.2,-5%,-2,.,-11,.,.
CC(C)Cc1csc(NC(=O)c2ccc(F)cc2)c1C(=O)O,-5.6,.,.,.,.,-6,2,.,-1.8,-4
CCn1ncc(-c2csc(N)n2)c1C,0.5,-3,-7,-1.4,7%,-6,10,-0.9,1.2,-18
CCC(C)NC(=O)CNC(=S)N(Cc1ccccc1F)C1CCCCC1 (stereo unspecified),-0.2,1,7,-1.9,-8%,-5,-9,-2.1,-2.7,15
COC(=O)c1ccc(CN(c2ccccn2)S(=O)(=O)c2ccccc2)cc1,0.5,.,.,.,0%,-13,-25,.,-2.8,-17
Cc1cccc(S(=O)(=O)c2c(N)n(/N=C/c3ccccc3)c3nc4ccccc4nc23)c1,0.0,.,.,.,-7%,10,-11,.,1.3,31
CCOc1ccc(NC(=O)Cc2ccc(S(=O)(=O)N3CCOCC3)s2)cc1OCC,-1.2,8,4,-1.3,.,-3,4,2.7,2.5,-3
CCN(CC)CC(C)CNC(=O)CN1C(=O)CSc2ccc(S(=O)(=O)N3CCOCC3)cc21 (stereo unspecified),1.0,11,6,-0.7,28%,0,-2,-3.2,-2.6,-11
CC(=O)c1cccc(NS(=O)(=O)c2ccc(-c3cc(C)no3)s2)c1,0.5,-12,-20,2.3,.,13,18,-6.6,5.2,-32
COc1ccc(S(=O)(=O)N2CCC(C(=O)NCC3CCCO3)CC2)cc1C (stereo unspecified),-0.6,.,.,.,2%,8,-6,.,-1.4,-1
CCC(C)N(C(=O)CSc1nncn1C)C1CCS(=O)(=O)C1 (stereo unspecified),-0.1,21,4,3.3,-1%,1,.,-1.5,.,.
CCOc1ccc(-n2cccc2C=O)cc1,-3.2,.,.,.,.,-1,-10,.,-0.9,-19
COc1ccc2ccccc2c1-c1sc(Nc2ccccc2)n[n+]1-c1ccc(F)cc1,0.8,-58,-79,-29,.,38,8,43*,-0.1,61*
Cc1ccc(-n2c(Cc3ccccc3)nnc2SCC(=O)NNC(=O)Cc2ccccc2)cc1,0.7,.,.,.,10%,-8,-7,.,2.4,-20
NC(=O)CN1CCN(c2cccc(Cl)c2)CC1,1.4,1,-4,-2.1,4%,-2,-4,6.3,0.4,-14
CCOC(=O)N1N=C(c2ccc(C)cc2)CC1(O)C(F)(F)F (stereo unspecified),-2.6,-6,11,0.8,12%,-10,?,-7.3,?,0
c1ccc(CNc2ccc(N3CCOCC3)cc2)cc1,-5.0,9,13,14,.,1,.,22,.,.
O=C(NCCCN1CCCC1)Nc1ccccc1[N+](=O)[O-],2.2,12,13,-0.6,0%,-5,-7,3.9,-1.2,2
CCCn1nc(C(=O)NC2CC2)c2ccccc2c1=O,0.6,16,12,-0.6,4%,4,.,-0.2,.,.
CC(C)(C)n1nnnc1C(c1ccncc1)N1CCN(C2CCCCC2)CC1 (stereo unspecified),0.3,9,10,-0.8,2%,-7,-15,-0.9,-5.5,-25
COC(C[C@H]1O[C@H]1[C@H](O)COCc1ccccc1)OC,.,-2,3,0.0,-6%,.,-2,2.4,-3.9,-3
COc1ccc(NC(=O)Nc2ccccc2C(=O)N2CCCC2)cc1,-2.3,.,.,.,7%,-4,20,.,?,-26
O=C(CSc1nnc(-c2ccco2)n1Cc1ccco1)NCc1ccccc1,0.5,.,.,.,-3%,1,1,.,4.2,10
CC(=O)N1c2ccc(S(=O)(=O)NCC3CCC(C(=O)Nc4cccc(C)n4)CC3)cc2CC1C (stereo unspecified),-0.3,7,4,-1.5,.,17,2,2.3,0.8,5
O=C1Nc2ccccc2O/C1=C\c1ccccc1Br,-1.5,-4,-18,0.0,-2%,6,-9,-0.4,1.3,16
Cc1ccnc(N2C(=O)c3ccc([N+](=O)[O-])cc3C2=O)c1,0.2,3,9,-1.2,-10%,-19,-5,1.3,-5.4,-3
COc1cccc(NC(=O)N2CCCC2C(=O)NCc2ccco2)c1 (stereo unspecified),0.7,4,-1,-2.5,1%,-7,-4,0.6,5.6,-2
CC(=O)Nc1ccc(S(=O)(=O)NCCC(=O)NNC(=O)c2ccncc2)cc1,1.2,19,9,5.9,-3%,-3,.,-0.3,-0.8,-8
CCOC(=O)c1c(C)oc2cc(Br)c(OC(=O)N3CCOCC3)cc12,1.4,.,.,.,10%,4,0,.,-5.1,4
O=C(CSc1nnnn1C1CCCCC1)NCc1cccc(C(=O)O)c1,0.3,.,.,.,-3%,-7,-6,.,0.3,-4
COc1cc(C(=O)NCCN2C(=O)S/C(=C\c3cccs3)C2=O)cc(OC)c1OC,-4.8,-1,12,1.4,-7%,-1,15,-3.5,7.7,11
COCCN(C(=O)COC(=O)C1CCC(C(C)(C)C)CC1)c1c(N)n(Cc2ccccc2)c(=O)[nH]c1=O (stereo unspecified),0.4,-3,10,-3.1,3%,106*,3,-2.1,1.2,8
CCC(C)NC(=O)C(Cc1ccccc1)NS(=O)(=O)c1cccc2nsnc12 (stereo unspecified),-0.7,.,.,.,28%,3,9,.,3.3,3
CCOCCc1nnc(N)s1,-1.3,14,2,-1.1,0%,0,-16,-3.9,0.0,-10
COc1ccccc1/C=C(\C#N)C(=O)c1cccn1C,1.7,7,18,0.3,.,.,-1,6.4,2.5,-4
Cc1cc(=O)oc2cc(NC(=S)NCc3ccccn3)ccc12,0.9,-14,-14,-7.3,0%,0,4,0.0,2.4,-26
Cc1cc(Oc2ccc(C)c(Cl)c2)nc(SCC(=O)c2ccccc2)n1,0.2,9,9,-4.7,-2%,4,-1,-0.6,-0.9,25
Cc1cc(N=Cc2c(O)ccc3ccccc23)no1,-0.9,.,.,.,9%,-12,25,.,2.1,-7
O=C(NCCCN1CCOCC1)C(=O)NCc1ccccc1,0.3,-2,6,-1.1,.,-1,-5,-0.4,-0.6,8
CCCc1ccc(C#N)c(SC2CC(=O)N(c3ccc(OC)cc3)C2=O)n1 (stereo unspecified),-0.6,-16,-22,0.0,.,0,5,4.5,2.8,-12
COc1cc(C2/C(=C(\O)c3ccc4c(c3)CC(C)O4)C(=O)C(=O)N2CCCn2ccnc2)ccc1O (stereo unspecified),1.3,.,.,.,?,-6,-2,.,?,-8
Cc1cc2nc(SCCOC(=O)Nc3ccc(Cl)cc3)nc(C)c2cc1C,0.4,.,.,.,-16%,2,1,.,1.8,-4
COc1ccccc1C(c1nnnn1Cc1ccccc1)N1CCN(C2CCCC2)CC1 (stereo unspecified),1.8,.,.,.,-6%,-1,-4,.,1.1,-13
C=CCn1c(SCc2ccc(C(=O)O)cc2)nc2sc(C)c(C)c2c1=O,-0.5,0,-8,-2.4,8%,-1,31,-3.3,-0.7,-2

# Going on with the list.
SMILES,A1 inh,Ecoli rRNA inh,Ecoli rRNA inh OD600,Ecoli rRNA inh RFP,Vif TR-FRET,Beta apoptosis,Calb FLC,MLL AF4-AF9 inh,RanGTP-Impb inh,T cruzi inh
Nc1ccc2nc(-c3ccccc3)sc2c1,-7.6,.,.,.,1%,18,-2,.,1.6,31
CCOC(=O)C1=NN(c2ccc(Cl)cc2)C(=O)C1,-0.2,-10,7,5.8,8%,-1,-12,?,-2.0,-3
C/C=C/C(=O)N1CC2(CC(c3cccc(NC(=O)COc4ccc(Cl)cc4)c3)=NO2)C[C@@H]1C(N)=O (stereo partly specified),0.5,-12,-2,7.9,.,-2,-5,0.8,?,-12
O=C(NNC(=O)c1ccccc1OCc1ccc(F)cc1)c1ccncc1,-0.3,-2,2,1.4,9%,-6,6,-0.1,0.8,-10

# A few values from above:
# Beta apoptosis, C/C=C/C(=O)N1CC2(CC(c3cccc(NC(=O)COc4ccc(Cl)cc4)c3)=NO2)C[C@@H]1C(N)=O (stereo partly specified) reads -2
# T cruzi inh, O=C(NNC(=O)c1ccccc1OCc1ccc(F)cc1)c1ccncc1 reads -10

# Bioassay records: PubChem, several laboratories

# The list is partial; count on the stated rates, not on these rows.
